BJeLR lethal: BJeLR cell viability loss | BJeLR (HRASV12) viability, CellTiter-Glo ATP luminescence, 48 h; reference of the scale not given here | inhibition, % (concentration not given with the values) | 300,000 compounds, 0.17% hits | AID 1554;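 active means replicate mean above 50%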;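 further: 50 nL library stock added to about 25 µL; numbers are from one replicate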
RN4220 kill: S. aureus RN4220 growth inhibition; OD600, 16 h; inhibition, % (no concentration beside the values); 330,000 compounds, 0.33% hits; AID 1259311;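 active means z-score of -3 or lower and OD600 up to 0.18 on both plates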;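 further: plate controls were untreated cells for no effect and reference antibiotic for full effect; stock transfer was 100 nL into about 80 µL; one replicate is shown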
ugtP null kill: kills S. aureus RN4220 lacking UgtP. S. aureus RN4220 ugtP deletion, OD600 growth, 16 h; some inactives read as strong as hits. growth inhibition, % (no concentration beside the values). 330,000 compounds, 0.54% hits;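 active means z-score under -3 and OD600 up to 0.15 on both plates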;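 further: plate controls were untreated wells for no effect and antibiotic for full effect; wells of about 80 µL received 100 nL stock; the first replicate is given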
Mtb hypoxia inh: Mtb hypoxia fluorescent reporter inhibition. fluorescence inhibition, % (test concentration not listed). M. tuberculosis hypoxia-regulated fluorescent reporter, fluorescence. 300,000 compounds, 0.1% hits;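 active means 35 to 45% if threefold the growth effect, above 45% if 1.5-fold the growth effect; inactive means the rest, general growth blockers included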;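 further: wells of about 50 µL received 100 nL stock; 0% = vehicle wells and 100% = reference inhibitor wells; whole bacteria with a GFP reporter of the hypoxia response; strong numbers were not always called active; many hits fall short of the cut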
PrP UTR inh: suppresses PrP 5' UTR mRNA reporter expression. inhibition, % (no concentration beside the values). cell-based PrP 5' UTR mRNA reporter, plate reader. 340,000 compounds, 0.35% hits;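 active means every replicate at 50% or more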;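 further: 0 = median of the neutral control wells; tested in H4 reporter cells; numbers are from one replicate; inactives centre near -14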
Autofluor counter: compound fluorescence in toxin protease inhibitor counterscreen; AID 624483; compound autofluorescence counterscreen, microsphere flow cytometry; hits give high values; fluorescence intensity (concentration not given with the values); 360,000 compounds, 3.1% hits;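 active means at least 3 SD above the mean of all compounds, about 16000 in these data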;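 further: 100 nL of 1 mM stock went into each well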
Mtb hypoxia inh growth: also measured in Mtb hypoxia inh; calls as there; growth inhibition, %; measured here: M. tuberculosis growth (absorbance);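 0% = vehicle and 100% = reference antibiotic; read after six days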
* hit, by the source's call.

Screening Cc1cc(C)c2c(=O)[nH]c(SCC(=O)Nc3cccc(S(=O)(=O)N(C)C)c3)nc2n1 returned RN4220 kill 4.1, ugtP null kill 3, Mtb hypoxia inh 21, PrP UTR inh -2, Autofluor counter 3907 and Mtb hypoxia inh growth 5.
`Cc1cc(C(=O)CSc2nnc(-c3cccs3)o2)c(C)n1-c1ccccc1` gave BJeLR lethal 0, RN4220 kill 16, ugtP null kill 0, Mtb hypoxia inh 8, PrP UTR inh 23, Autofluor counter 5813 and Mtb hypoxia inh growth 7.
`CC(C)CN(C)C(=O)CCc1nnc(Cc2ccc(-c3ccccc3)cc2)o1` gave BJeLR lethal -7, RN4220 kill 2.7, ugtP null kill -4, Mtb hypoxia inh 8, PrP UTR inh -42, Autofluor counter 2537 and Mtb hypoxia inh growth 5.
`CCn1c(=S)ccc2ccc(OC)cc21` gave BJeLR lethal 5, RN4220 kill 9.1, ugtP null kill 5, Mtb hypoxia inh 3, PrP UTR inh -38, Autofluor counter 2757 and Mtb hypoxia inh growth 4.
For CC(NC(=O)c1cccc(Cn2cc([N+](=O)[O-])cn2)c1)c1ccc(C(C)(C)C)cc1 (stereo not given) the results were BJeLR lethal -2, RN4220 kill 0.2, ugtP null kill -3, Mtb hypoxia inh 6, PrP UTR inh -15, Autofluor counter 19892* and Mtb hypoxia inh growth 1.
Screening CCc1ccccc1NC(=O)Nc1ccon1 returned BJeLR lethal -1, RN4220 kill 3.6, ugtP null kill 7, Mtb hypoxia inh 4, PrP UTR inh 3, Autofluor counter 4480 and Mtb hypoxia inh growth 7.
Screening CC(C)=C1C2CCC1C1C(=O)N(c3nc(-c4ccc(F)cc4)c(C)s3)C(=O)C21 (stereo not given) returned BJeLR lethal 4, RN4220 kill 5.4, ugtP null kill 9, PrP UTR inh -4 and Autofluor counter 3631.
`Nc1cnn(Cc2ccccc2F)c1` gave BJeLR lethal -3, RN4220 kill 3.1, ugtP null kill 2, Mtb hypoxia inh 4, PrP UTR inh -38, Autofluor counter 4040 and Mtb hypoxia inh growth -5.
CC(Cc1c[nH]c2ccccc12)NC(N)=O (stereo not given) was read as BJeLR lethal 6, RN4220 kill 2.4, ugtP null kill 4, Mtb hypoxia inh 5, PrP UTR inh -14, Autofluor counter 4100 and Mtb hypoxia inh growth 7.
For COC(=O)[C@@]12CCCCN1[C@H](c1ccc(-c3cc(C(C)=O)cs3)cc1)[C@H]1C(=O)N(C)C(=O)[C@H]12 the results were BJeLR lethal -1, PrP UTR inh -10 and Autofluor counter 3581.
`Cc1cc(C)cc(N2CC34C=CC(O3)C(C(=O)OCC(=O)NCc3ccco3)C4C2=O)c1` (stereo not given) gave BJeLR lethal 1, RN4220 kill 13, ugtP null kill -8, Mtb hypoxia inh 12, PrP UTR inh -32, Autofluor counter 5858 and Mtb hypoxia inh growth 3.
For CC1CC=CC2C1C(=O)N(Cc1ccccc1)C2c1ccc(-c2ccc(F)cc2)cc1F (stereo not given) the results were RN4220 kill 2.9, ugtP null kill 19, Mtb hypoxia inh 16 and Mtb hypoxia inh growth 7.
`CN(C(=O)CN1CCCCCC1)c1c(N)n(Cc2ccccc2)c(=O)[nH]c1=O` gave RN4220 kill 1.7, ugtP null kill 1, Mtb hypoxia inh 2, PrP UTR inh -9 and Mtb hypoxia inh growth 2.
COc1ccc(Cl)cc1C(=O)Nc1ccc(Br)c(C)n1 was read as BJeLR lethal 0, RN4220 kill 6.1, ugtP null kill 2, Mtb hypoxia inh 9, PrP UTR inh -43, Autofluor counter 4748 and Mtb hypoxia inh growth -1.
Screening Fc1ccccc1Cn1nnc(-c2ccc3c(c2)OCO3)n1 returned BJeLR lethal -1, RN4220 kill 0.8, ugtP null kill 14, Mtb hypoxia inh 9, PrP UTR inh -84, Autofluor counter 5941 and Mtb hypoxia inh growth 6.

A draw from above in order of length of the SMILES, largest number first:
For COC(=O)[C@@]12CCCCN1[C@H](c1ccc(-c3cc(C(C)=O)cs3)cc1)[C@H]1C(=O)N(C)C(=O)[C@H]12 the results were BJeLR lethal -1, PrP UTR inh -10 and Autofluor counter 3581.
Screening CC(C)=C1C2CCC1C1C(=O)N(c3nc(-c4ccc(F)cc4)c(C)s3)C(=O)C21 (stereo not given) returned BJeLR lethal 4, RN4220 kill 5.4, ugtP null kill 9, PrP UTR inh -4 and Autofluor counter 3631.
`CC(C)CN(C)C(=O)CCc1nnc(Cc2ccc(-c3ccccc3)cc2)o1` gave BJeLR lethal -7, RN4220 kill 2.7, ugtP null kill -4, Mtb hypoxia inh 8, PrP UTR inh -42, Autofluor counter 2537 and Mtb hypoxia inh growth 5.

(next part)
For CCOc1ccc(S(=O)(=O)N2CCOCC2)cc1NC(=O)C1CSC2(C)CCC(=O)N12 (stereo not given) the results were BJeLR lethal 4, RN4220 kill 4.0, ugtP null kill 7, Mtb hypoxia inh 0, PrP UTR inh 0, Autofluor counter 6197 and Mtb hypoxia inh growth 3.
For O=C(CSc1nnc(CNC(=O)c2ccccc2F)o1)Nc1cccc(C(F)(F)F)c1 the results were BJeLR lethal -9, RN4220 kill 2.0, ugtP null kill 6, Mtb hypoxia inh 1, PrP UTR inh 0, Autofluor counter 4119 and Mtb hypoxia inh growth -7.
Screening CC(=Nc1nc2ccccc2n1C)c1cc(Cl)ccc1O returned RN4220 kill -21, ugtP null kill -10, Mtb hypoxia inh 17 and Mtb hypoxia inh growth -17.
`Cc1c(C)c2ccc(OC(C)C(=O)N[C@@H](Cc3c[nH]c4ccccc34)C(=O)O)c(C)c2oc1=O` (stereo not given in full) gave BJeLR lethal -2, RN4220 kill 3.0, ugtP null kill 6, PrP UTR inh -13 and Autofluor counter 4248.
For CCn1cc(/C=C(\NC(=O)c2ccccc2Cl)C(=O)N2CCOCC2)c2ccccc21 the results were BJeLR lethal -13, RN4220 kill 0.8, ugtP null kill 2, Mtb hypoxia inh 11, PrP UTR inh -13, Autofluor counter 5914 and Mtb hypoxia inh growth 1.
For CC(=O)N1CCc2cc(S(=O)(=O)NCCC(=O)Nc3ccc4c(c3)OCCO4)ccc21 the results were BJeLR lethal 3, RN4220 kill 8.4, ugtP null kill 10, PrP UTR inh -26 and Autofluor counter 2470.
Screening CS(=O)(=O)c1ccc(NS(=O)(=O)c2ccc(Cl)c(C(=O)NCc3ccco3)c2)cc1 returned RN4220 kill 4.9, ugtP null kill 13, Mtb hypoxia inh 5, PrP UTR inh -9, Autofluor counter 3086 and Mtb hypoxia inh growth 2.
COC(=O)Nc1sc2c(c1C(=O)NC1CC1)CCCCCC2 was read as BJeLR lethal 9, RN4220 kill 2.4, ugtP null kill 6, Mtb hypoxia inh 11, PrP UTR inh 2, Autofluor counter 16545* and Mtb hypoxia inh growth -1.
`COc1ccc(C(C)=NNC(=O)c2nnn(-c3nonc3N)c2-c2ccccc2)cc1` gave RN4220 kill 7.5, ugtP null kill -3, Mtb hypoxia inh 0 and Mtb hypoxia inh growth -7.
For c1ccc(-n2nnnc2NCCc2c[nH]c3ccccc23)cc1 the results were BJeLR lethal -2, RN4220 kill 1.8, ugtP null kill 1, Mtb hypoxia inh 8, PrP UTR inh 0, Autofluor counter 6437 and Mtb hypoxia inh growth 4.
COC(=O)c1ccc(NC(=O)c2cccc(C)c2)cc1 was read as BJeLR lethal 1, RN4220 kill -0.5, ugtP null kill 8, Mtb hypoxia inh 15, PrP UTR inh -32, Autofluor counter 4242 and Mtb hypoxia inh growth 3.
Screening CCOc1cc(CN2CCN(C(=O)c3cccc4ccccc34)CC2)ccc1OC returned BJeLR lethal -10, RN4220 kill 4.2, ugtP null kill 6, Mtb hypoxia inh 10, PrP UTR inh -14, Autofluor counter 3566 and Mtb hypoxia inh growth 14.
NC(=O)COC(=O)Cc1coc2cc3c(cc12)CCC3 was read as BJeLR lethal -12, RN4220 kill 5.9, ugtP null kill 6, Mtb hypoxia inh -4, PrP UTR inh 27, Autofluor counter 4704 and Mtb hypoxia inh growth 2.
Screening CS(=O)(=O)N1CCN(c2ccccc2NC(=O)c2cccc3ccccc23)CC1 returned BJeLR lethal 1, RN4220 kill 1.8, ugtP null kill 2, Mtb hypoxia inh 0, PrP UTR inh -4, Autofluor counter 4531 and Mtb hypoxia inh growth 6.
Screening CC1CCCCC1NC(=O)COn1nnc2ccc(Cl)cc21 (stereo not given) returned BJeLR lethal -3, RN4220 kill 3.9, ugtP null kill 7, Mtb hypoxia inh 9, PrP UTR inh -24, Autofluor counter 2836 and Mtb hypoxia inh growth 10.
`Cc1cccc(C)c1OCC(=O)Nc1cccc(C(=O)O)c1` gave BJeLR lethal 2, RN4220 kill 4.0, ugtP null kill 7, Mtb hypoxia inh 14, PrP UTR inh -55, Autofluor counter 4291 and Mtb hypoxia inh growth 5.
Cc1nn(-c2ccccc2)c2c1c(C)c(CCC(=O)NCC1CCCO1)c(=O)n2C (stereo not given) was read as BJeLR lethal 1, RN4220 kill 2.6, ugtP null kill 2, Mtb hypoxia inh -4, PrP UTR inh 3, Autofluor counter 5619 and Mtb hypoxia inh growth 0.
For Cc1ccccc1/C=N/NC(=O)c1sccc1C the results were BJeLR lethal 22, PrP UTR inh -155 and Autofluor counter 8460.
`CCn1c(=O)c(C(=O)NCCc2ccc(OC)c(OC)c2)c(O)c2ccccc21` gave BJeLR lethal 9, RN4220 kill 9.4, ugtP null kill -4, Mtb hypoxia inh -7, Autofluor counter 3838 and Mtb hypoxia inh growth 5.
`Cc1ccc(C(C(=O)NC2CCCCC2)N(CC2CCCO2)C(=O)CNC(=O)c2ccco2)cc1` (stereo not given) gave BJeLR lethal 2, RN4220 kill 4.7, ugtP null kill -1, Mtb hypoxia inh 12, PrP UTR inh -2, Autofluor counter 4355 and Mtb hypoxia inh growth 10.
Screening O=C(O)CNC(=O)C1COc2ccccc2O1 (stereo not given) returned BJeLR lethal -7, RN4220 kill -1.1, ugtP null kill 3, PrP UTR inh -16 and Autofluor counter 2648.
O=C(Nc1nnc(CC(=O)N2CCOCC2)s1)C1COc2ccccc2O1 (stereo not given) was read as BJeLR lethal 6, RN4220 kill -2.9, ugtP null kill 1, Mtb hypoxia inh 6, PrP UTR inh -20, Autofluor counter 3719 and Mtb hypoxia inh growth 2.
CC(C)N1CCC2(CC1)Oc1ccc(Br)cc1C1CC(c3cccnc3)=NN12 (stereo not given) was read as BJeLR lethal -6, RN4220 kill 2.4, ugtP null kill 5, Mtb hypoxia inh 4, PrP UTR inh -21, Autofluor counter 4541 and Mtb hypoxia inh growth 2.
`O=C(NCCc1ccccc1)[C@@H]1CC=C[C@@H]2CCN(C3CCCCC3)C(=O)[C@@H]21` gave BJeLR lethal -5, PrP UTR inh 5 and Autofluor counter 3998.
For O=C(Oc1ccccc1)c1cccc2cccnc12 the results were BJeLR lethal -4, RN4220 kill 23, ugtP null kill 21, Mtb hypoxia inh 5, PrP UTR inh -14, Autofluor counter 5857 and Mtb hypoxia inh growth 8.
For COC(=O)/C=C1/S/C(=N/NC(=O)c2ccccc2OC)NC1=O the results were BJeLR lethal 5, RN4220 kill 6.2, ugtP null kill 3, Mtb hypoxia inh 5, PrP UTR inh -25, Autofluor counter 4155 and Mtb hypoxia inh growth 0.
Screening CCO[C@H]1OC(C(=O)N2CCN(Cc3ccccc3)CC2)=C[C@@H](c2cn(C(C)=O)c3ccccc23)[C@@H]1CCCO returned BJeLR lethal 4, PrP UTR inh -15 and Autofluor counter 3839.
`COc1ccc(N=C(NN)c2ccc3ccccc3n2)cc1` gave BJeLR lethal -2, RN4220 kill 1.3, ugtP null kill -9, Mtb hypoxia inh 10, PrP UTR inh -85, Autofluor counter 2169 and Mtb hypoxia inh growth 5.
`CC(C)C(=O)NC(c1ccco1)c1ccc2cccnc2c1O` (stereo not given) gave BJeLR lethal 7, PrP UTR inh 8 and Autofluor counter 3493.
O=C(CN1C(=O)c2ccccc2S1(=O)=O)Nc1ccc(S(=O)(=O)N2CCCC2)cc1 was read as BJeLR lethal -7, RN4220 kill 1.9, ugtP null kill 2, Mtb hypoxia inh -1, Autofluor counter 10743 and Mtb hypoxia inh growth 3.
For CC(=O)Nc1ccc(S(=O)(=O)NCc2cc(=O)n(C)c(=O)n2C)cc1 the results were BJeLR lethal 9, RN4220 kill 4.1, ugtP null kill 8, Mtb hypoxia inh 8, PrP UTR inh -21, Autofluor counter 6203 and Mtb hypoxia inh growth -7.
For CCc1nc2ccccc2c(C(=O)Nc2cccc(C)c2)c1C the results were BJeLR lethal -3, RN4220 kill 1.1, ugtP null kill 7, Mtb hypoxia inh 5, PrP UTR inh -35, Autofluor counter 4290 and Mtb hypoxia inh growth -4.

Compound activity (PubChem)
